Screening data (PubChem)
SmPrx2 inh: inhibitors of Schistosoma mansoni peroxiredoxin 2 | S. mansoni Prx2 activity coupled to TGR/GSH (TGR is thioredoxin glutathione reductase), NADPH fluorescence loss, qHTS; some inactives read as strong as hits | Potency, µM | 65,000 tested, 0.07% active; active means full or partial inhibition curve with a strong effect at the top dose; inconclusive means weaker partial or single-point curve; inactive means no accepted curve; note: series up to 57 µM; many of its hits are not listed in these tables
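Prx2 activity was followed as the loss of NADPH fluorescence (ex 365/em 450 nm), read every 30 sec for 8 min after H2O2 start. The enzyme mix (50 nM Prx2, 25 nM TGR, GSH, NADPH; pH 7.4 phosphate buffer) was incubated with compound for 15 min at room temperature first.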
Anthrax LT inh: anthrax lethal toxin internalization inhibition; AID 912; Potency, µM (doses to about 40 µM), for inactives: at the highest dose activity change, negative = inhibition, most hits filed as inhibitors; Cells, anthrax lethal toxin internalization, FRET ratio (460/530); 70,000 tested, 0.67% active; active = well fitted falling ratio curve with the 530 nm signal flat; inconclusive = other ratio curves, or a change in one channel alone; inactive = flat curves in the ratio and both channels; the % refers to the ratio; note: % is set by controls: 0 for no effect and ±100 for the full control effect; nearly all actives have a fitted effect of over 50% in size; tested in ME-180 cells; beta-lactamase reporter
* hit, by the source's call; ? = inconclusive; nt = not tested or not shown; & = joins results of further samples; [ ] = dose if it differs, or a comment. Potency is the fitted concentration of half-maximal effect.

SMILES | SmPrx2 inh | Anthrax LT inh
CCOC(=O)C1=C(C)N=c2s/c(=C\C(=O)OC)c(=O)n2C1c1ccc(OC)cc1 (centres undefined) | nt | 13%
CCc1cc2c(SCC(=O)O)ncnc2s1 | >57 | 7%
CC(=O)C1=C(O)C(=O)N(c2cc(C(C)(C)C)on2)C1c1ccc(Br)cc1 (centres undefined) | >57 | 2%
CC(=O)OCCNC(=O)c1cccnc1 | >57 | -11%
CC(=O)Nc1ccc(NC(=O)N2CCCCC2)cc1 | >57 | 6%
CCCCOC(=O)c1ccc(NC(=O)C2CCCO2)cc1 (centres undefined) | >57 | 9%
O=C1CCC(=O)N1OCCCOc1ccc(Br)cc1Cl | >57 | -21%
O=C(O)CNCP(=O)(O)O | >57 | -5%[8 µM]
CCN(CC)CCCN(Cc1cc2cc3c(cc2[nH]c1=O)OCCO3)C(=O)Nc1ccccc1 | >57 | -15%
Cc1sc2nc(SCC(=O)NCc3ccco3)n(-c3ccccc3)c(=O)c2c1C | >57 | -4%
CCc1ccccc1NC(=O)N[C@@H](C)C(=O)OC | >57 | -10%
Cc1c(C(=O)NCCCN2CCOCC2)sc2ncnc(N3CCN(c4ccccc4)CC3)c12 | >57 | 11%
CC(=O)N1c2ccccc2C(=O)OC1c1cccnc1 (centres undefined) | >57 | 2%
O=C1c2oc3ccc(F)cc3c(=O)c2C(c2ccncc2)N1CCN1CCOCC1 (centres undefined) | >57 | -2%
CCNc1ncc2nc(-c3cc(F)cc(F)c3)c(=O)n(CCc3ccccc3)c2n1 | >57 | ?
CCCC(=O)Nc1ccc(-c2nc3cc(C)ccc3o2)cc1 | >57 | -17%
O=C(Nc1ccccc1Oc1ccccc1)C1CC1 | nt | -7%
Cc1nc(CC(=O)Nc2nc(C(C)(C)C)cs2)cs1 | >57 | 6%
Cc1cc(C)nc(-n2nc(C)c(C3(O)C(=O)Nc4ccc(F)cc43)c2N)n1 (centres undefined) | >57 | -3%
CC(NC(=O)C1CCN(c2nnc(-n3cccc3)s2)CC1)C12CC3CC(CC(C3)C1)C2 (centres undefined) | >57 | -30%

In a second layout: 3 of the compounds above.
| canonical_smiles | SmPrx2 inh | Anthrax LT inh |
| --- | --- | --- |
| CCc1ccccc1NC(=O)N[C@@H](C)C(=O)OC | >57 | -10% |
| CC(=O)N1c2ccccc2C(=O)OC1c1cccnc1 (centres undefined) | >57 | 2% |
| CC(=O)OCCNC(=O)c1cccnc1 | >57 | -11% |

(more compounds)
SMILES | SmPrx2 inh | Anthrax LT inh
Cc1ccccc1NCc1ccccc1O | >57 | -14%
CCOC(=O)CC(/C(C)=N\O)c1ccccc1 (centres undefined) | >57 | -3%
Cc1cccc(N2CCN(C(=O)C3CCN(S(=O)(=O)c4cccc5cccnc45)CC3)CC2C)c1 (centres undefined) | >57 | ?
O=C(CSc1nnc(-c2cnccn2)n1Cc1ccco1)Nc1ccc(Br)cc1 | >57 | 5%
CN(C)C(=O)c1ccc(-c2nccc(NCc3cccs3)n2)cc1 | >57 | 5%
O=C(Nc1cccc(NC(=O)c2ccc(Br)o2)n1)c1ccc(Br)o1 | >57 | -10%
O=C(Nc1ccc(Oc2ccccc2)cc1)c1ccco1 | >57 | -1%
CCC1CCCCN1Cc1nc2c(c(=O)n(C)c(=O)n2C)n1CCC(C)C (centres undefined) | >57 | ?
Cc1cc(C(=O)NCCCN2CCCC2=O)no1 | >57 | 7%
COCCNC(=O)c1cc2c(=O)n3cccc(C)c3nc2n1C | >57 | -7%
Cn1c(=O)c(-c2cc(F)cc(F)c2)nc2cnc(N3CCOCC3)nc21 | >57 | ?
Cc1nc(N2CCN(Cc3ccccc3)CC2)nc2c1C(=O)CC(c1ccco1)C2 (centres undefined) | >57 | -23%
COc1ccc(N2CC(C(=O)Nc3ccc(S(=O)(=O)Nc4nc(C)cc(C)n4)cc3)CC2=O)cc1 (centres undefined) | nt | -4%
O=C(O)C(Cl)Cl | nt | ?
CCOc1cccc(N)c1 | nt | -4%
N#CNC1=NCN(CCc2ccccc2)CN1 | >57 | -3%
COc1ccc(N2CCN(CCNC(=O)C3CC(=O)N(C4CCCC4)C3)CC2)cc1 (centres undefined) | >57 | -8%
O=S(=O)(NCc1ccc(Cl)cc1)c1cnc[nH]1 | >57 | -4%
N#C/C(C(=O)N1CCOCC1)=c1\s/c(=C/c2ccncc2)c(=O)n1-c1ccccc1 | >57 | nt
Cc1cc(C(=O)Nc2sc3c(c2C#N)CCC(C)C3)cs1 (centres undefined) | >57 | -17%
O=c1nc2n(c3ncccc13)CCC2 | >57 | 5%
ON(CCc1ccncc1)Cc1ccccc1 | >57 | 3%[8 µM]
Nc1nnc(-c2ccco2)s1 | nt | -4%
COc1ccc(-c2cc(C(=O)N(C)Cc3ccccc3)no2)cc1OC | >57 | ?
C[C@@]12CC[C@H]3[C@@H](CC[C@@H]4C[C@H](O)CC[C@]43C)[C@H]1CC[C@H]2O | >57 | -7%
CCc1ccccc1NC(=O)CSc1nnc([C@@H](NC(=O)OC(C)(C)C)C(C)CC)o1 (some centres undefined) | >57 | ?
COc1ccc(CNC(=O)c2cccc(N(C)C)c2)cc1 | >57 | 5%
CCCCN1CCC(n2c(=O)[nH]c3ccccc32)CC1 | >57 | -2%
CCCS(=O)(=O)N1CCCC(C(=O)NCCCN(CC)c2cccc(C)c2)C1 (centres undefined) | >57 | 5%
COc1ccc(/C(O)=C2/C(=O)C(=O)N(Cc3cccnc3)C2c2ccccn2)cc1 (centres undefined) | >57 | 1%
Cc1cc(NC(=O)C23CCC(C)(C(=O)O2)C3(C)C)no1 (centres undefined) | >57 | 6%
COc1ccc(-c2n[nH]c(C)c2-c2ccc(Cl)cc2)c(O)c1OC | >57 | ?
O=C(c1ccccc1)c1c[nH]c2cc3c(cc2c1=O)OCO3 | >57 | 3%
CC1CN(S(=O)(=O)c2cccc(-c3cn4cccnc4n3)c2)CC(C)O1 (centres undefined) | >57 | nt
Cc1ccc(C)c(N2CCN(C(=O)CCCCn3c(=O)[nH]c4ccccc4c3=O)CC2)c1 | >57 | ?
O=[N+]([O-])c1ccc2c3c(cccc13)CC2 | nt | ?
O=C(Nc1ccc(CN2CCCCC2)cc1)c1ccc(Br)o1 | >57 | -12%
CCCc1nn(C)c2c1C(c1ccncc1)C(C#N)=C(N)O2 (centres undefined) | >57 | ?
O=C(O)CCS(=O)(=O)c1cccc2cccnc12 | >57 | -11%
Cc1cc2ccccc2nc1SCC(=O)N1CCCC1 | >57 | -11%

Sorted by formula weight (descending): some entries from above
SMILES | SmPrx2 inh | Anthrax LT inh
CCc1ccccc1NC(=O)CSc1nnc([C@@H](NC(=O)OC(C)(C)C)C(C)CC)o1 (some centres undefined) | >57 | ?
CC1CN(S(=O)(=O)c2cccc(-c3cn4cccnc4n3)c2)CC(C)O1 (centres undefined) | >57 | nt
COc1ccc(-c2cc(C(=O)N(C)Cc3ccccc3)no2)cc1OC | >57 | ?
Cc1cc2ccccc2nc1SCC(=O)N1CCCC1 | >57 | -11%
Cc1cc(NC(=O)C23CCC(C)(C(=O)O2)C3(C)C)no1 (centres undefined) | >57 | 6%
O=c1nc2n(c3ncccc13)CCC2 | >57 | 5%

Going on with the list.
SMILES | SmPrx2 inh | Anthrax LT inh
CC(C)C(OC(=O)c1cc2sccc2n1C)C(=O)NCC1CCCO1 (centres undefined) | >57 | -24%
Cc1cnc(NC(=O)C2=C(O)c3ccccc3S(=O)(=O)N2C)s1 | >57 | 0%
COC(=O)c1c(NC(=O)c2ccco2)sc(C(=O)N2CCCC2)c1C | >57 | -15%
Cc1onc(-c2ccccc2)c1C(=O)NCCc1c[nH]c2ccccc12 | >57 | 2%
CC1(C)OC(=O)CC1C(=O)NCc1ccccc1 (centres undefined) | >57 | -20%
CC(C)CC(=O)Nc1ccc(F)c(Cl)c1 | nt | -12%
COc1ccc(NC(=O)CSc2nnc(Cn3c(=O)sc4ccccc43)n2C)cc1OC | >57 | 7%
Cc1cc(C)nc(NC2=NCCN2C(=O)NC2CCCCC2)n1 | >57 | -14%
COc1ccc(CN=CC2=C(O)CC(C)(C)CC2=O)cc1 | >57 | 5%
C=CCN1C(=CCO)[C@H]2C[C@H]3[C@@H]1CC[C@@]31c3ccccc3N3C=C4[C@@H]5N(/C=C/2[C@H]31)c1ccccc1[C@]51CC[C@H]2[C@H]1C[C@@H]4/C(=C/CO)N2CC=C | >57 | 2%[3.58 µM]
Cc1ccc(NC(=O)CN2C(=O)NC(Cc3ccccc3)C2=O)cc1 (centres undefined) | >57 | -2%
O=C(Cn1cnc2ccccc2c1=O)NCCC(=O)N1CCN(c2ccccc2)CC1 | >57 | 3%
CC(C)(C)NC(=O)C(c1cccs1)N(CC1CCCO1)C(=O)Cn1nnc(-c2cccs2)n1 (centres undefined) | >57 | 17%
CN1CC[C@@]2(CCCN(C(=O)c3cc(C(F)(F)F)cc(C(F)(F)F)c3)C2)C1 | >57 | 3%
COC(=O)[C@@H]1O[C@@H](SCCN)[C@@H](O)[C@H](O)[C@H]1O | >57 | -5%[8 µM]
COc1ccc2nc(NC(=O)Cn3cnc4c(=O)n(C)c(=O)n(C)c43)sc2c1 | >57 | -11%
CN1CCN(C(=O)c2ccccc2NC(=O)CCN2C(=O)c3ccccc3C2=O)CC1 | >57 | ?
O=C(c1ccccc1)c1ccc(OC(=O)N2CCCC2)cc1 | >57 | ?
COc1ccccc1OCCCn1cc(C(=O)c2ccco2)c2ccccc21 | >57 | ?
COc1ccc(OC)c(CNC(=O)CCN2C(=O)COc3ccccc32)c1 | >57 | -1%

One compound at a time, from the list above:
CC(C)C(OC(=O)c1cc2sccc2n1C)C(=O)NCC1CCCO1 (centres undefined) in the list: SmPrx2 inh: >57; Anthrax LT inh: -24%
COc1ccc(NC(=O)CSc2nnc(Cn3c(=O)sc4ccccc43)n2C)cc1OC in the list: SmPrx2 inh: >57; Anthrax LT inh: 7%

Next compounds:
SMILES | SmPrx2 inh | Anthrax LT inh
CC(C)c1nc2oc3c(N4CCNCC4)ncnc3c2c2c1CCC2 | >57 | ?
COc1c(F)c(F)c(-c2csc(N)n2)c(F)c1F | >57 | -3%
O=C1c2ccccc2NC2(CCCCC2)N1c1ccc(O)cc1 | nt | -12%
Cc1cc(NC(=O)CSc2nc3c(c(=O)n2Cc2ccccc2)SC(C)C3)no1 (centres undefined) | ? | -4%
Cc1ccc(C)c(CN2CCC(n3nnc4cc(F)ccc43)CC2)c1 | >57 | -19%
O=C(Nn1cnnc1)c1ccc(F)c(S(=O)(=O)N2CCCCC2)c1 | >57 | 9%
Cc1ccc(S(=O)(=O)N2CCC(C(=O)N[C@@H](Cc3ccccc3)C(=O)O)CC2)cc1 | >57 | 6%
Ic1cncc(OC[C@@H]2CCN2)c1 | >57 | ?
CCCC(=O)C1=C(SCC)CC(C)(C)C(C(=O)OC)C1=O (centres undefined) | >57 | 7%
Cc1cccc(-n2c(SCC(=O)Nc3ccc4c(c3)OCO4)nnc2-c2ccoc2C)c1 | >57 | -13%
COC(=O)NC/C=C\c1nc(CCCO)co1 | nt | 2%[8 µM]
C=CCn1c(SCC(=O)c2cccs2)nnc1-c1cccc(OC)c1 | >57 | 17%
O=C(OCC(=O)c1ccc[nH]1)c1ccc(S(=O)(=O)N2CCCCC2)cc1 | >57 | 2%
O=C(COc1ccccc1Br)NCc1ccco1 | nt | -4%
O=C(Nc1cnccn1)c1csc2ccccc12 | >57 | nt
CCOC(=O)C1CCN(C(=O)CSc2nnc(-c3ccco3)n2-c2ccccc2)CC1 | >57 | ?
Cc1ccc(S(=O)(=O)c2nc(C)oc2NCc2ccccc2)cc1 | >57 | -15%
O=C(COC(=O)c1ccccn1)c1ccc(Br)cc1 | nt | -5%
COc1ccc(-c2noc(-c3cc(C)cc(C)c3)n2)cc1OC | >57 | -25%
Cc1cccn2cc(CNC(=O)C3CCCCC3)nc12 | >57 | 0%
CC(Oc1ccc2oc(-c3ccccc3)c(C(=O)O)c2c1)C(=O)O (centres undefined) | nt | -5%
CCCC(=O)Nc1cc(Cl)ccc1N1CCN(C(=O)CC)CC1 | >57 | 7%
COCCn1c(-c2ccccc2)nc(=S)c2c1CC(C)(C)OC2 | >57 | -12%
CN=C(NC#N)NCCSCc1nc[nH]c1C | >57&>57 | ?
CCOc1ccc(OCC(=O)c2c(O)c3ccccc3oc2=O)cc1 | >57 | 2%
CC(C)N1C(=O)CCC1C(=O)N1CCCc2ccccc21 (centres undefined) | >57 | 2%
CC(C)(C)c1cn(-c2ccccc2)c(=S)[nH]1 | >57 | -1%
CC(=O)c1cccc(NC(=O)c2ccc(S(=O)(=O)N3CCCCC3)cc2)c1 | >57 | -6%
O=C(NCCN1CCN(c2cccc(Cl)c2)CC1)C1CCCN(S(=O)(=O)c2cnc[nH]2)C1 (centres undefined) | >57 | -3%
Brc1ccc(C2=Nn3c(nnc3-c3n[nH]c4c3CCC4)SC2)cc1 | >57 | -13%
O=C(N1CCN(Cc2ccc3c(c2)OCO3)CC1)C12CC3CC(CC(C3)C1)C2 | >57 | -4%
Cc1ccc(C(=O)O[C@@H](C(=O)O)[C@@H](OC(=O)c2ccc(C)cc2)C(=O)O)cc1 (tested in a mixture with another compound) | >57 | 3%
O=C(CCN1CCN(c2ccccc2)CC1)Nc1ccccc1F | >57 | 3%
COc1ccc(NC(=O)NCc2cccn2C)c(OC)c1 | >57 | 2%
O=C(Nn1c(-c2ccccc2)nc2ccccc2c1=O)C1CCC1 | >57 | -7%
COc1ccc(CCNC(=O)C2CC(=O)N(c3ccc(F)cc3)C2)cc1OC (centres undefined) | >57 | 4%
C=CCOc1ccccc1CN1CCSCC1 | nt | -17%

The list is partial; the hit share may differ from the screen's.
